Assay outcomes from PubChem.
KCNQ2 inh: KCNQ2 potassium channel inhibitors, primary screen, cell-based, CHO-K1, FluxOR thallium flux, B-score (AID 2156). O88943. 20 min; hits give low values; only compounds with negative scores are shown here; some inactives read as strong as hits. B-score at 10 µM. 1.1% of 310,000 active;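 active = fluorescence ratio B-score at most minus 3 library SDs, with starting brightness B-score within 2 library SDs, cut at about -5.5 in these data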
Target sequence (O88943 whole entry, looked up): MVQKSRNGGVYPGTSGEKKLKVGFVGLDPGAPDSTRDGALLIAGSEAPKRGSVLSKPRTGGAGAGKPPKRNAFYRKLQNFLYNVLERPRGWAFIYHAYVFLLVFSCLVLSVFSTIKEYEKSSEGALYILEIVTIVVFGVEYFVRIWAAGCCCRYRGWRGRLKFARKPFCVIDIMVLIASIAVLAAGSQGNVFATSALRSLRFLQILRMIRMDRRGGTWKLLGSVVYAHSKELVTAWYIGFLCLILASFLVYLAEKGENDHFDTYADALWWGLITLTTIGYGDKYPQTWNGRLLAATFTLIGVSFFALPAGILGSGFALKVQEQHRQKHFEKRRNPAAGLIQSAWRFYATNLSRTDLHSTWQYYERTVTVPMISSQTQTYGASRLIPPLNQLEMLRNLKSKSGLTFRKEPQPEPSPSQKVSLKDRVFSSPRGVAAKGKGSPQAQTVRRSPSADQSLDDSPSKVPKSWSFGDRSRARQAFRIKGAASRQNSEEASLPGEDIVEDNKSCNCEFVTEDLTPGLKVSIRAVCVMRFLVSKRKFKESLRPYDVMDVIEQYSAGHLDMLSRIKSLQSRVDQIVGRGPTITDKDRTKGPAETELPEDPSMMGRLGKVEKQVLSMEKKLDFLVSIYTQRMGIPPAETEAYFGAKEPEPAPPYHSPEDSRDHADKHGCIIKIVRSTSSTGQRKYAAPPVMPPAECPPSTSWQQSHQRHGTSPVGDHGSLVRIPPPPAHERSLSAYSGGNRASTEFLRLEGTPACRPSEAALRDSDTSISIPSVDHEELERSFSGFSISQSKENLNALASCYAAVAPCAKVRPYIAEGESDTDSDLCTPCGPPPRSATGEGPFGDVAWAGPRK
KCNQ2 inh baseline: further read-out of KCNQ2 inh, marked with its call; B-score; measured here: initial fluorescence intensity artifact check;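 brightness before thallium and not channel activity; 0 = typical well and far values either way flag optical interference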
Numbers without * were called inactive; i = inactive. These rows are one share of the data (hit frequency here may not be typical).

SMILES	KCNQ2 inh	KCNQ2 inh baseline
CCOC(O)[C@H]1N[C@@H](c2ccc(Cl)cc2)[C@@H]([N+](=O)[O-])[C@@H]1c1ccccc1 (stereo not given in full)	i	0.08
CN(C)/C=N/C(=S)Nc1ccc(Cl)cc1	i	-1.4
CCOc1nc(Nc2ccccc2F)nc(OCC)n1	i	-0.29
O=C(NC1CCCCC1)c1ccc(-c2ccccc2)cc1	i	1.1
Cc1ccc(C2(C)NC(=O)N(CC(=O)Nc3ccc(N4CCOCC4)cc3N3CCOCC3)C2=O)cc1 (stereo not given)	i	1.1
Oc1ccc(Br)cc1C1Nc2ccccc2S1 (stereo not given)	i	1.3
Cc1ccc(CNCC(O)(c2ccccc2)c2ccc(F)cc2)cc1 (stereo not given)	i	4
O=CC1=C(N2CCOCC2)/C(=C\c2ccccc2)CC1	i	1.3
C=CCCC(=O)N1CCC(n2nccc2NC(=O)c2ccc(OC)cc2)CC1	i	-0.05
O=C(COC(=O)C1CCC(=O)N1)Nc1ccc(Br)cc1 (stereo not given)	i	0.94

Exported with values under each structure: entries from further up.
Values run as follows: KCNQ2 inh	KCNQ2 inh baseline
CN(C)/C=N/C(=S)Nc1ccc(Cl)cc1
  i	-1.4
CCOc1nc(Nc2ccccc2F)nc(OCC)n1
  i	-0.29

Going on with the list.
SMILES	KCNQ2 inh	KCNQ2 inh baseline
Cc1ccc(C(=O)N2CCN(c3ccc(Cl)cc3)CC2)cc1	i	-1.2
Cc1nc(C(=O)NCC(=O)c2ccccc2)c(C(F)(F)F)o1	i	0.88
Cn1cnc([N+](=O)[O-])c1S(=O)(=O)c1cccc(Cl)c1	i	-0.29
COc1ccc(/C=C(\C#N)C(=O)Nc2cccc(C)n2)cc1	i	0.4
CC1(C)COC(c2cccn2Cc2ccc(F)cc2Cl)=N1	i	0.13
Cn1cc(CCCC(=O)NCc2ccccc2)c2ccccc21	i	1
COc1ccc(C2C(C(C)=O)=C(O)C(=O)N2c2nccs2)c(OC)c1 (stereo not given)	i	1.2
CC1Cc2ccccc2N1C(=O)CN1C(=O)C(=O)N(Cc2ccccc2)C1=O (stereo not given)	i	-0.19
O=C(NNC(=O)c1ccccc1C(=O)O)c1ccc(-c2ccccc2)cc1	i	0.33
CCOc1ccc(CN(C)CC(=O)Nc2ccc3c(c2)CCC3)cc1OC	i	-2.8

Molecules listed so far containing a Cl atom:
SMILES	KCNQ2 inh	KCNQ2 inh baseline
CCOC(O)[C@H]1N[C@@H](c2ccc(Cl)cc2)[C@@H]([N+](=O)[O-])[C@@H]1c1ccccc1 (stereo not given in full)	i	0.08
CN(C)/C=N/C(=S)Nc1ccc(Cl)cc1	i	-1.4
Cc1ccc(C(=O)N2CCN(c3ccc(Cl)cc3)CC2)cc1	i	-1.2
Cn1cnc([N+](=O)[O-])c1S(=O)(=O)c1cccc(Cl)c1	i	-0.29
CC1(C)COC(c2cccn2Cc2ccc(F)cc2Cl)=N1	i	0.13

The list goes on.
SMILES	KCNQ2 inh	KCNQ2 inh baseline
O=C(NCCCCNC(=O)c1cccs1)c1cccs1	i	-0.31
Cn1c(SCC(=O)Nc2ccc(C(N)=O)cc2)nnc1-c1cccs1	i	-1.7
CCN(C(C)=O)c1cccc2ccccc12	i	0.65
COc1cc(/C=N/OCC(=O)Nc2ccc(OC(F)F)cc2)ccc1OCc1ccccc1	i	-1.8
CCOC(=O)Cc1ccc(NC(=O)c2ccccc2Br)cc1	i	1.3
COc1ccc(-c2cc(C(=O)NCC(c3ccccc3)N(C)C)c3ccccc3n2)cc1OC (stereo not given)	i	0.04
Cc1noc(C)c1COc1ccc(C(=O)NCCc2ccccn2)cc1	i	0.45
CC(=O)N/C(=N/c1nc(C)cc(C)n1)Nc1ccc(F)cc1F	i	-0.55
Nn1c(=O)c2ccccc2n2c(SCc3ccccc3)nnc12	i	-0.24
COc1ccc(-c2nnc(NC(=O)C3=COCCO3)o2)cc1	i	-0.65
O/N=C(/CCc1ccccc1)c1ccc2c(c1)OCCO2	-5.9*	0.01*
Cc1c(C(=O)Nc2cccc(Cl)c2)c2ccccn2c1CCc1ccncc1	i	-0.34
COCn1c(COc2ccccc2)nc2ccccc21	i	-1.1
O=C(N/N=C/c1c[nH]c2ccccc12)c1cc(-c2ccccc2)n[nH]1	i	0.16
CCOc1cccc(/C(O)=C2/C(=O)C(=O)N(CCOC)C2c2ccco2)c1 (stereo not given)	i	0.94
CCCCNc1nc(-c2ccccc2)cc(C(F)(F)F)c1C(N)=O	i	0.42
Cc1cc(C)c2nc3sc(C(=O)N4CCOCC4)c(N)c3cc2c1	i	1.5
CCCn1c2ccccc2c2cnn(CC(=O)NCCN(CC)CC)c(=O)c21	i	-1.1
CCCCSc1cnn(-c2ccccc2)c(=O)c1SCCCC	i	-0.2
O=C(NCc1nnc(SCC(=O)N2CCC(Cc3ccccc3)CC2)o1)c1ccco1	i	-0.92
O=C(NC1CCCCC1)C(c1cccnc1)N(C(=O)CCl)c1ccccc1Cl (stereo not given)	i	0.43
CCOC(=O)c1sc(NC(=O)CSc2n[nH]c(CC)n2)nc1C	i	0.03
Cc1ccc(CCNC(=O)C2CCN(S(=O)(=O)c3cccc4nonc34)CC2)cc1	i	-0.48
O=C(Nc1ccc(N2CCOCC2)cc1)c1cc(-n2cnnc2)ccc1Cl	i	-0.04
O=C(COc1cccnc1[N+](=O)[O-])c1ccc(Cl)s1	i	-0.88
CCOc1ccc(CN2CCN(CCCc3ccccc3)CC2CCO)cc1 (stereo not given)	i	-0.09
COc1ccc(C(=O)O/N=C(\N)Cc2ccc([N+](=O)[O-])cc2)c(OC)c1	i	-0.31
CC1CCN(S(=O)(=O)c2ccc(Cl)cc2Br)CC1	i	-0.15
CN1CCCC(OC(=O)c2ccc(S(=O)(=O)N(C)C)cc2)C1 (stereo not given)	i	1.4
CC1=C(C(=O)OCC2CCCO2)C(c2ccccc2)NC(=O)N1 (stereo not given)	i	-0.08
O=C(CNC(=O)c1cccnc1)N/N=C/c1ccc(O)cc1O	i	0.06
Cc1nc2nc(Cc3ccccc3)nn2c(C)c1Cl	i	-0.04
O=S(=O)(c1ccc(Cl)cc1)N1CCCN(c2ccc(C(F)(F)F)cn2)CC1	i	-2.4
Cc1cc(C)cc(C(=O)NC(CC(N)=O)c2ccc(N3CCC(Cc4ccccc4)CC3)c([N+](=O)[O-])c2)c1 (stereo not given)	i	-1.3
CC(C)Oc1ccc(CCc2n[nH]c(=S)n2Cc2ccccc2)cc1	i	0.84
O=C(Nc1ccccc1)N1CCN(c2ncccn2)CC1	i	0.45
Cc1ccc(N(C)C(=O)CC(C)S(=O)(=O)c2ccc3c(c2)NC(=O)CO3)cc1 (stereo not given)	i	-0.89
COc1ccc(C(=O)Nc2ccc3c(c2)nc(CCNC(=O)c2ccco2)n3C)cc1	i	-0.83
Cc1c(NC2(c3nnnn3-c3ccc(Br)cc3)CCCCC2)c(=O)n(-c2ccccc2)n1C	i	-0.59
O=C(Nc1cccc([N+](=O)[O-])c1)Nc1ccc(Cl)cn1	i	-0.01
CCc1[nH]nc(C(=O)N2CCCC(Nc3ccc(C(C)C)cc3)C2)c1C (stereo not given)	i	0.88
Cc1ccc(-c2ccc(/C=C(\C#N)C(=O)Nc3cc(C)nn3-c3ccccc3)o2)cc1	i	13
Cc1ccccc1Cn1cccc1/C=C1/C(=N)N2C=CSC2=NC1=O	i	3.3
O=C(N/N=C/c1ccccc1C(F)(F)F)c1ccc2nc[nH]c2c1	i	0.17
C=CCN=C1S/C(=C\c2ccc(Cl)cc2)C(=O)N1CC=C	i	0.4
COCCN1CC(=O)N(c2cccc(C)c2C)C(c2ccc(Cl)cc2)C1=O (stereo not given)	i	0.19
O=C(Nc1cccc2[nH]ncc12)c1ccc(F)cc1	i	0.47
CCOc1cc(/C=N/Nc2nc(-c3cccc(S(=O)(=O)N4CCCC4)c3)cs2)ccc1O	i	-1.7
CCC(SC1=N/C(=C/c2ccccc2OC)C(=O)N1c1ccccc1)C(=O)Nc1cc(C)on1 (stereo not given)	i	0.85
CCOc1ccc(OCC)c(NC(=O)C2CCN(S(=O)(=O)c3cccc4nonc34)CC2)c1	i	1.6
The listing continues.
SMILES	KCNQ2 inh	KCNQ2 inh baseline
COc1ccc(CCNC(=O)CSc2ccc3nnc(CCNC(=O)c4ccccc4)n3n2)cc1OC	i	-0.03
COc1cccc(NC(=S)N(CCC(C)C)C2CCN(C(C)=O)CC2)c1	i	0.26
O=C(CCC(=O)N(CC(=O)NC1CCCCC1)Cc1ccc(F)cc1)Nc1nccs1	i	-3.8
COc1ccc(NC(=O)c2nnn(Cc3cccc(F)c3)c2N)c(OC)c1	i	0.83
Cc1cccc(OCC(=O)Nc2ccc(N3CCN(C(=O)c4ccco4)CC3)cc2)c1	i	0.63
CCN(CC(=O)Nc1cccc(OC)c1)C(=O)C1CCN(C(=O)Nc2ccccc2)CC1	i	0.06
CCn1c(SCC(=O)c2c[nH]c3ccccc23)nnc1-c1cccs1	i	-1.4
CCc1cccc(NC(=O)Cn2c(=O)oc3cc(S(=O)(=O)N4CCOCC4)ccc32)c1	i	0.85
CN(C)C(=O)CSc1nnc(-c2ccncc2)n1Cc1ccco1	i	-0.7
CCCC(=O)NC(C)c1nc2ccccc2n1C (stereo not given)	i	2.7
CN(C)c1ccc(CN(C(=O)C2COc3ccccc3O2)C2CCS(=O)(=O)C2)cc1 (stereo not given)	i	0.22
O=C(c1cc2sccc2n1Cc1ccc(F)cc1)N1CCc2ccccc21	i	-0.46
COc1ccc(Cl)cc1C(=O)N(Cc1nc(-c2cccc(C)c2)no1)C(C)C	i	-0.21
COCCN(CCOC)Cc1cc(=O)oc2cc3c(cc12)CCC3	i	0.67
O=C(CCSCc1ccccc1Cl)NCc1ccco1	i	0.74
Cc1ccc(NC(=O)C(=O)c2c[nH]c3ccccc23)cc1	i	-0.94
CCOc1ccc(NS(=O)(=O)c2ccc3c(c2)CCN3C(C)=O)cc1	i	0.41
Cc1occc1-c1nnc(SCC(=O)NCCc2ccccc2)o1	i	8.2
NS(=O)(=O)c1cc(C(=O)OCC(=O)N2CCOCC2)ccc1Cl	i	-1
CCc1ccc(NC(=O)N(CCN(C)C)C(C)c2cccnc2)cc1 (stereo not given)	i	1.6
COC(=O)c1ccc(CSc2nc3ccc(S(N)(=O)=O)cc3[nH]2)cc1	i	-0.24
CCN=C1S/C(=C\c2ccc(O)c(OCC)c2)C(=O)N1CC	i	4.9
Cn1c(CNC(=O)c2ccccc2F)nnc1SCC(=O)Nc1nnc(C2CC2)s1	i	0.54
COc1ccc(CNn2c(-c3ccccc3F)nc3ccccc3c2=O)cc1OC	i	5.3
CCCCC(CC)CNC(=O)c1cccs1 (stereo not given)	i	0.77
Cc1cccc(OCC(O)Cn2c(N3CCCCC3)nc3c2c(=O)n(C)c(=O)n3C)c1 (stereo not given)	i	0.81
CNC(=S)SCCOc1ccccc1	i	-1
COc1cccc(C(=O)Nc2cccc(-c3ccccc3)c2)c1	i	1.1
Cn1nnnc1SCC(=O)NCc1ccccc1	i	-1.5
CC1CCN(C(=O)/C(=C\c2ccccc2)NC(=O)c2ccccc2)CC1	i	0.58
COC(=O)c1cc(=O)n(Cc2ccc3c(c2)OCO3)c(=Nc2ccc(F)c(Cl)c2)s1	i	-0.67
O=C(NCc1ccco1)C1CCCN1S(=O)(=O)c1ccc2ccccc2c1 (stereo not given)	i	-0.03
CCCCCCn1ccc(=N)cc1	i	-0.58
Cc1ccc(S(=O)(=O)N2CCN(Cc3cc(C(C)(C)C)ccc3O)CC2)cc1	i	-0.22
C/C(=N/NC(=O)CNC(=O)CCc1ccccc1)c1ccc(Cl)cc1	i	-0.62
CCOC(=O)CP(=O)(c1ccccc1)c1ccccc1	i	0.12
O=C(O)c1c2c(nc3ccc(S(=O)(=O)N4CCC(C(=O)NC5CCCCCC5)CC4)cc13)CCCC2	i	0.8
Fc1cc(Br)ccc1NC(=S)NCCc1ccccc1	i	-0.03
CCOc1ccc(S(=O)(=O)N2CCN(C(=O)c3ccco3)CC2)cc1	i	0.46
COc1cc(C(CCN2CCN(c3ccccc3)CC2)c2c(OC)cc(OC)c3c(C)cc(=O)oc23)cc(OC)c1OC (stereo not given)	i	-0.12

As a working copy, 2 of the compounds above.
SMILES	KCNQ2 inh	KCNQ2 inh baseline
COC(=O)c1cc(=O)n(Cc2ccc3c(c2)OCO3)c(=Nc2ccc(F)c(Cl)c2)s1	i	-0.67
O=C(NCc1ccco1)C1CCCN1S(=O)(=O)c1ccc2ccccc2c1 (stereo not given)	i	-0.03

More compounds follow:
SMILES	KCNQ2 inh	KCNQ2 inh baseline
Cc1nc(NC(C)c2ccccc2)c2c3c(sc2n1)CCC3 (stereo not given)	i	0.21
Cc1ccccc1C(=O)NC(=S)Nc1cccc(NC(=O)C(C)C)c1	i	0.82
CC(C)(C)NC(=O)COc1ccc(S(=O)(=O)N2CCCC2)cc1	i	1
CCOc1ccc(NS(=O)(=O)c2ccc(-c3ccc(=O)[nH]n3)o2)cc1	i	0.93
COc1cc(C2NC(=O)NC(C)=C2[N+](=O)[O-])cc(OC)c1OC (stereo not given)	i	-0.02
COC(=O)c1cc2c(ccn2-c2ccc(F)cc2)n1Cc1ccc(C#N)cc1	i	-0.23
O=C(NCC1CCCO1)c1cc2c(=O)[nH]c3ccccc3c2s1 (stereo not given)	i	-0.04
O=C(CSc1nnc(CNC(=O)c2ccco2)o1)Nc1ccc(Cl)cc1	i	0.29
N#CC1CC(c2ccc([N+](=O)[O-])cc2)=NN1c1ccc([N+](=O)[O-])cc1 (stereo not given)	i	2
O=C(NCc1ccc2c(c1)OCO2)C(=O)NCC1OCCN1S(=O)(=O)c1ccc(Br)cc1 (stereo not given)	i	-1.3
